# Rango dissoc inh: inhibitors of RanGTP-induced Rango-importin beta complex dissociation; Biochemical FRET Rango-importin beta, RanGTP-induced dissociation; O95149+P62826; 0.071% of 340,000 active; AID 540253; Potency, µM (top dose mostly 46.1 µM), inactives show at the highest dose activity change, negative = inhibition; active means falling FRET ratio curve, often poorly fitted, with flat reads before Ran was added; inconclusive means other falling curves, or compound fluorescence or quenching; inactive means flat or rising ratio curve;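 note: potency is the fitted concentration of half-maximal effect; % of control where 0% means no effect; nearly all actives have a fitted effect of over 45% in size; -100% = wells without RanGTP and RCC1; the record marks most hits as doubtful in a second field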
#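 Rango FRET biosensor (snurportin-1 IBB flanked by N-terminal EYFP and C-terminal CFP10) at 0.1 uM, with 0.25 uM importin beta in PBS, 1mM DTT, 0.02% Tween-20, 0.1% BSA. 0.6 uM Ran, 2mM GTP and 0.2 uM RCC1 were then added for 45 min at room temperature. Inhibition read as loss of FRET rise.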
# miR-21 reporter: raises the signal of a miR-21 reporter. HeLa miR-21 FLuc reporter, luciferase, 48 h. Potency, µM (titrated, usually from 38.3 µM), for the others: at the highest dose reporter change, positive = more light. 340,000 tested, under 10 active. AID 2288; active = well fitted rising curve with a large enough effect; inconclusive = small, poorly fitted or top-dose-only effect; inactive = no such curve, though single readings can be large or run the other way;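 note: % of control where 0% means no effect; miR-21 action dims this reporter so a rising signal means less miR-21 action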
#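 Using DMEM plus 10% FBS, HeLa miR-21-FLuc cells are incubated with test compounds (final up to about 40uM) for 48 hours; firefly luciferase signal is then imaged following reagent-mediated lysis.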
# Rango-impB inh: prevents formation of the Rango-importin beta complex; Q14974; Rango CFP/YFP FRET sensor + importin beta, 45 min; Potency, µM (highest dose often 92.2 µM), for inactives: at the highest dose inhibition of complex formation; 0.031% of 340,000 active; AID 540263; active = rising FRET ratio curve, often small or poorly fitted; inconclusive = mostly compound fluorescence or quenching in the first reads; inactive = flat curves in all reads;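 note: potency is the fitted concentration of half-maximal effect; 0% = DMSO wells and 100% = buffer wells lacking importin beta; nearly all actives have a fitted effect of over 15% in size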
#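 FRET biosensor Rango (snurportin 1 IBB between N-terminal EYFP and C-terminal Cerulean), 50 nM in PBS/1 mM DTT/0.02% Tween-20/0.1% BSA, preincubated 5 min RT with compound; 0.125 microM importin beta added, 45 min RT, CFP/YFP FRET ratio read.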
# GLA inh pH 4.5: blocks human alpha-galactosidase A at pH 4.5; purified enzyme, 4-MU-alpha-Gal fluorescence, pH 4.5; AID 1467; activity change, negative = inhibition, % at 105 µM; 230,000 tested, under 10 active; P06280; inconclusive = small, poorly fitted or top-dose-only inhibition, or a rising curve; inactive = flat fitted curve, though single readings scatter; no compound was filed as active;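 note: 0% = full activity with enzyme and -100% = basal without enzyme; dose as in the result columns while the protocol names 77 µM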
# Target sequence (P06280 whole entry, looked up): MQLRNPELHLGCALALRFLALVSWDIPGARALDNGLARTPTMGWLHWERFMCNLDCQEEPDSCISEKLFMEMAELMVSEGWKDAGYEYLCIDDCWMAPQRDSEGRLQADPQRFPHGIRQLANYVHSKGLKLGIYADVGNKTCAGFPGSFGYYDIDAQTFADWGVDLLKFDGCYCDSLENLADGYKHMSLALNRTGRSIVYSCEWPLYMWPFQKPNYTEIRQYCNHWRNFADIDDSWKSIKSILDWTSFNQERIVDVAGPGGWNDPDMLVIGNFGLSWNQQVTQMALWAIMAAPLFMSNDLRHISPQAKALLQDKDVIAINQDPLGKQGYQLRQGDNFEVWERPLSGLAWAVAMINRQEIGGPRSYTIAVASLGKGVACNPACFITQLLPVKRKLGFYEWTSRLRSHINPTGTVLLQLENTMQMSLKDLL
# Numbers without * were called inactive; ? = inconclusive; nt = no result given.
SMILES,Rango dissoc inh,miR-21 reporter,Rango-impB inh,GLA inh pH 4.5
Cc1ccc(C)c(NC(=S)NC(NC(=O)OCc2ccccc2)C(Cl)(Cl)Cl)c1 (stereo not given),-14.3%,-9.2%,0.4%,-4.0
O=C(Nc1ccccc1)c1cn2ccccc2n1,4.0%,22.4%,1.2%,2.1
O=C(NCCN1CCOCC1)c1ccc2c(c1)N(Cc1ccc(Cl)cc1)C(=O)CS2,8.1%,-3.0%,-0.6%,nt
O=C(COC(=O)c1ccc(O)cc1O)NC(=O)NCc1ccccc1,8.8%,nt,4.0%,nt
CCOC(=O)COc1c(OC)cc(Cl)cc1C1Nc2ccccc2C(=O)N1c1ccccc1 (stereo not given),-5.7%,-8.1%,-0.5%,8.2
O=C(CCCN1C(=O)/C(=C\c2cccs2)SC1=S)Nc1ccccn1,-1.0%,-1.8%,-1.6%,3.2
COC(=O)c1ccccc1N(Cc1ccccc1)S(C)(=O)=O,-7.5%,-4.8%,-3.2%,-13.3
CCCC1=C(C(=O)OCC)C(c2cccnc2)n2nc(C)nc2N1 (stereo not given),13.7%,6.0%,?,0.7
Cc1c(C(=O)N2CCCCCC2)c(S(=O)(=O)Nc2cccc(F)c2)c(C)n1C,0.3%,-3.3%,-1.0%,nt
CCOc1c(Br)cc(/C=C(\C#N)C(=O)NC2CC2)cc1OC,10.3%,-1.3%,-1.6%,nt
C/C(=N\NC(N)=S)c1ccc2c(c1)OCCO2,-13.8%,-20.2%,2.5%,1.0
CC(=O)Oc1ccc(C(=O)Nc2cccc3c2CCCC3)cc1,0.7%,-13.4%,-1.8%,nt
Nc1c(S(=O)(=O)c2cccs2)c2nc3ccccc3nc2n1Cc1ccc2c(c1)OCO2,0.9%,12.0%,-1.5%,5.3
O=C(CSc1nc(=O)n(CCN2CCOCC2)c2c1CCCC2)Nc1ccc([N+](=O)[O-])cc1,11.8%,nt,-1.2%,nt
Cc1ccc(S(=O)(=O)N2CCCNCC2)cc1,15.9%,-2.1%,-0.1%,nt
CNc1nc(Nc2ccc(C)c(Cl)c2)c2cnn(C)c2n1,-6.6%,8.1%,-0.9%,nt
NS(=O)(=O)c1ccc(CNC(=O)C2CCCCC2)cc1,?,-7.5%,-1.0%,4.8
COc1cccc(/C=N/Nc2nc(N3CCCC3)nc(N3CCCC3)n2)c1O,-0.2%,10.8%,-0.9%,-8.0
COc1ccc(C2/C(=C(/O)c3ccccc3)C(=O)C(=O)N2c2ncccn2)cc1OC (stereo not given),37.1%,-6.8%,5.3%,-11.1
CCOC(=O)COc1cccc(C2NC(=O)c3ccccc3O2)c1 (stereo not given),13.4%,-0.5%,-0.3%,nt
Cc1cc(C)cc(C(=O)N(CCc2ccccc2)C2CC3CCC(C2)N3C)c1 (stereo not given),0.4%,0.8%,4.9%,nt
O=c1cc[nH]c2cc(Cl)ccc12,0.2%,2.0%,-2.6%,-0.8
COc1cc(C(=O)N(Cc2cc3ccccc3[nH]c2=O)CC2CCCO2)cc(OC)c1OC (stereo not given),21.0%,-11.8%,1.3%,5.9
O=C(CN(C(=O)c1ccc(Cl)cc1)C1CCCCC1)Nc1ccc(Cl)c([N+](=O)[O-])c1,-19.4%,-6.0%,0.2%,-5.6
CC1CCCCC1NC(=O)CCS(=O)(=O)c1ccc2c(c1)NC(=O)CO2 (stereo not given),-6.7%,0.9%,4.0%,nt
Cc1cccc(OCCSc2nc3ccccc3n2CCC(=O)O)c1,-5.4%,-6.4%,-1.1%,nt
CCN(Cc1ccccc1)C(=O)COC(=O)CNS(=O)(=O)c1ccc(C)cc1,-12.1%,-3.6%,-1.8%,-4.0
CCCCC(=O)Nc1cccc(-c2nn3c(C)nnc3s2)c1,4.9%,-6.3%,-2.1%,-4.1
COc1ccccc1CC(=O)NN1C(=O)c2ccccc2C1=O,-14.1%,-4.2%,-2.0%,1.1
CC1=C(C(=O)Nc2ccccc2)C(c2sccc2C)n2nnnc2N1 (stereo not given),nt,-4.9%,nt,7.5
C=CCn1c(SCCOc2ccc(OC)cc2)nnc1C(NC(=O)c1ccc(OC)cc1)C(C)C (stereo not given),0.3%,-1.3%,-1.4%,-11.8
COc1ccc(Cl)cc1NC(=O)C/C(C)=N/NC(=O)Cc1ccccc1,7.0%,-11.0%,0.8%,1.4
CC(C)(C)c1csc(NNC(=O)c2ccc(Br)cc2)n1,1.5%,0.8%,2.4%,3.9
CC(C)COc1nc2ccccc2nc1C(C#N)C(=O)NC1CCCCC1 (stereo not given),?,2.6%,?,7.2
Cc1onc(-c2ccccc2)c1C(=O)N/N=C/c1cc(Br)c(Br)o1,-12.0%,1.4%,0.8%,1.8
Cc1cc(C)nc(NS(=O)(=O)c2ccc(N3C(=O)C4C5C=CC(C5)C4C3=O)cc2)n1 (stereo not given),1.7%,-8.6%,-0.8%,-5.8
CCc1ccc(OCC(=O)N2CCN(c3ccccn3)CC2)c(Br)c1,?,-4.7%,-0.4%,nt
Cc1cc(C)n(C(=O)c2ccc(S(=O)(=O)N3CCOCC3)cc2)n1,6.3%,-1.4%,2.8%,7.0
O=C(NNC(=O)c1ccccc1-n1cccc1)c1cccc(Cl)c1,-7.9%,-3.6%,-3.1%,5.8
COc1cc2c(cc1OC)C(c1cccs1)NCC2 (stereo not given),5.3%,-10.2%,-2.6%,9.4

# Filtered by structure: those above containing an NH in an aromatic ring.
SMILES,Rango dissoc inh,miR-21 reporter,Rango-impB inh,GLA inh pH 4.5
O=c1cc[nH]c2cc(Cl)ccc12,0.2%,2.0%,-2.6%,-0.8
COc1cc(C(=O)N(Cc2cc3ccccc3[nH]c2=O)CC2CCCO2)cc(OC)c1OC (stereo not given),21.0%,-11.8%,1.3%,5.9

# (further entries)
SMILES,Rango dissoc inh,miR-21 reporter,Rango-impB inh,GLA inh pH 4.5
COc1ccc(-c2nc(-c3ccccc3)[nH]c(=O)c2C#N)cc1,27.3%,-3.9%,-2.0%,5.4
COc1ccc(S(=O)(=O)NC(C)C(=O)Nc2cccc([N+](=O)[O-])c2)cc1 (stereo not given),1.2%,1.5%,-3.0%,2.9
N/C(=N\c1nc2c(c(=O)[nH]1)CCCC2)Nc1ccccc1,-8.2%,-10.6%,-7.1%,-11.7
Cc1[nH]c2ccccc2c1C(=O)/C=C/c1ccccc1Cl,5.6%,-37.9%,-0.6%,-7.9
CC(C#N)(NC(=O)COC(=O)c1ccccc1NCCO)C1CC1 (stereo not given),0.9%,nt,2.8%,nt
CCOC(=O)c1ccc(NC(=O)CN(Cc2ccc(Cl)cc2)S(C)(=O)=O)cc1,-13.7%,16.4%,0.2%,-0.1
CCC(=O)c1ccc(OCC(=O)N2CCN(c3ncccn3)CC2)cc1,18.2%,nt,4.7%,nt
Cc1ccc(NC(=O)Cn2nc(C)c(S(=O)(=O)N(C)C)c2C)cc1,4.0%,-0.5%,-0.4%,-1.1
COc1cccc(-c2onc3ccc(C4(C)OCCO4)cc23)c1,-11.5%,7.2%,-2.5%,-7.6
O=C(CC1Sc2ccccc2NC1=O)Nc1cccc(C(=O)O)c1 (stereo not given),-11.0%,-8.7%,-4.2%,3.1
O=C1CC(c2ccco2)CC(O)=C1C=NCCN1CCN(C(=S)Nc2ccccc2)CC1 (stereo not given),-0.3%,4.9%,-1.8%,-0.6
CCC(Cc1ccccc1)NS(=O)(=O)c1c(C)nc2sccn2c1=O (stereo not given),43.8%,-1.4%,0.4%,nt
Cc1nc(-c2cccc(S(=O)(=O)N3CCCC(C)C3)c2)cs1 (stereo not given),-8.9%,-8.7%,-1.6%,-5.1
CC1(C)CC(=O)C=C(Nc2cc(-c3ccccc3)[nH]n2)C1,28.9%,-24.2%,0.9%,-12.4
Cc1ccccc1C(=O)NC1CCN(Cc2nnnn2Cc2ccc(F)cc2)CC1,0.3%,-0.6%,0.5%,-12.7
O=C(N/N=C/c1ccc(N2CCOCC2)cc1)C1CC1,-8.4%,-26.7%,-1.2%,-2.3
Cc1nc(NCCc2ccc(S(N)(=O)=O)cc2)c2c(C)c(C)sc2n1,0.9%,19.6%,?,-6.5
CCc1cc2c(=O)c(-c3cnn(-c4ccccc4)c3)coc2c(CN2CCOCC2)c1O,-5.2%,-18.2%,1.3%,-11.2
COc1ccc(N2C(=O)C3C4C=CC(C5CC45)C3C2=O)c([N+](=O)[O-])c1 (stereo not given),-14.0%,-6.8%,-0.9%,-1.5
CN=C1CC(SC)=C1c1ccc(C)cc1,-21.2%,-3.2%,?,-2.9
CCCCC(=O)c1ccc(O)cc1O,12.7%,nt,-4.1%,nt
Cc1cc(C)cc(OCc2nnc(SCC(=O)Nc3ccccc3)o2)c1,-4.3%,-5.7%,-0.2%,12.9
S=C(NCCCN1CCOCC1)Nc1ccc(Cl)cc1Cl,0.3%,-7.4%,-5.5%,-2.0
N#CC1=C(N)OC2=C(C(=O)CCC2)C1C1C=CCCC1 (stereo not given),-10.1%,0.3%,-2.0%,12.0
NS(=O)(=O)c1ccc(CCNC(=O)/C=C/c2ccc([N+](=O)[O-])cc2)cc1,16.2%,4.8%,0.4%,-6.4
CC(OC(=O)c1n[nH]c2ccccc12)C(=O)Nc1ccccc1[N+](=O)[O-] (stereo not given),0.7%,nt,-2.5%,nt
O=C(O)/C=C\C(=O)N1CCc2ccccc21,-12.9%,-0.9%,2.7%,1.5
O=C(Nc1ccn(-c2ccccc2)n1)c1ccc(Cl)cc1,10.9%,-19.6%,?,-5.4
CCN(CCCNC(=O)CSc1cc(=O)n(C)c2cc(Cl)ccc12)Cc1ccccc1,34.2%,0.1%,12.4%,-2.4
Cc1ccc(C(=O)NCc2ccncc2)cc1S(=O)(=O)Nc1cccc(C)c1C,-6.1%,-4.3%,3.1%,nt
COc1ccc(C(Nc2ccccn2)c2oc(CO)cc(=O)c2O)cc1 (stereo not given),2.7%,-6.3%,-0.4%,-4.1
CC1(C)CC2CC(C)(CN2C(=O)CCCN2C(=O)c3ccccc3C2=O)C1 (stereo not given),-0.3%,-6.3%,1.8%,9.5
O=C(Nc1ccc(SC(F)F)cc1)C12CCC(CC1)C2,3.9%,-37.5%,2.2%,-7.7
CN(CCc1ccccn1)C1CCCN(S(=O)(=O)c2ccccc2Cl)C1 (stereo not given),-1.7%,0.6%,-2.9%,nt
COc1ccc(-n2ncc3c(NCc4cccs4)ncnc32)cc1,-13.2%,-44.6%,-1.3%,0.5
O=C(CCc1nnc(CCCc2ccccc2)o1)N1CCCCCC1,-11.0%,-44.6%,0.2%,0.6
O=C(COC(=O)c1ncc(Cl)c(Cl)c1Cl)Nc1cccnc1Cl,31.5%,nt,2.4%,nt
N#CCC(CNc1ncc(C(F)(F)F)cc1Cl)OC(=O)c1c(F)cccc1F (stereo not given),6.6%,nt,-1.3%,nt
O=C1CCCC2=C1C(c1ccc(O)c(O)c1)c1c(ccc3ncccc13)N2 (stereo not given),-23.7%,-7.4%,-4.7%,-4.2
Clc1ccccc1Sc1cnc2ccccc2n1,2.6%,-15.3%,-2.5%,2.7
O=[N+]([O-])c1ccc2oc(-c3cccc(O)c3)nc2c1,-7.3%,-18.0%,6.1%,1.3
CSc1cccc(NC(=O)CSc2nnc(C)s2)c1,36.1%,-11.1%,5.9%,-2.3
Cc1cc(Nc2n[nH]c(N)c2C#N)ccc1F,-7.5%,-14.4%,-3.8%,1.7
O=C(COc1ccc(/C=N/NS(=O)(=O)c2ccccc2)cc1)NCc1ccccc1,2.8%,-7.3%,5.0%,-6.8
NNC(=O)c1ccc(NS(=O)(=O)c2ccc(Br)cc2)cc1,nt,-26.3%,nt,2.1
CCCn1c(=O)c2sccc2n2c(CCCC(=O)NCc3ccco3)nnc12,-27.1%,7.2%,-6.3%,nt
CCn1c(SCC(=O)NC2CC2)nnc1-c1ccccc1OC,-25.8%,0.0%,4.5%,nt
O=C(CC1Nc2c3ccccc3nc(=S)n2C1=O)NC1CCCCC1 (stereo not given),nt,0.6%,nt,10.0
O=C(CSC1=Nc2ccccc2C2=NC(CC(=O)N3CCN(c4ccccc4)CC3)C(=O)N12)NCC1CCCO1 (stereo not given),?,-5.4%,?,-0.5

# Source: PubChem BioAssay

# Not all compounds are listed (hit frequency here may not be typical).
